Cruzain inh Det: inhibitors of Trypanosoma cruzi cruzain with detergent. P25779. purified cruzain, Z-FR-AMC fluorescence, 0.01% Triton. Potency, µM, for the others: max response, negative = inhibition, actives largely listed as inhibitors. 200,000 tested, 0.43% active. AID 1478;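 also: plate controls were neutral wells for no effect and buffer without enzyme for full effect; nearly all actives have a fitted effect of over 40% in size; top concentration of the series not given in the record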
Target sequence (P25779 123-467 limits assumed): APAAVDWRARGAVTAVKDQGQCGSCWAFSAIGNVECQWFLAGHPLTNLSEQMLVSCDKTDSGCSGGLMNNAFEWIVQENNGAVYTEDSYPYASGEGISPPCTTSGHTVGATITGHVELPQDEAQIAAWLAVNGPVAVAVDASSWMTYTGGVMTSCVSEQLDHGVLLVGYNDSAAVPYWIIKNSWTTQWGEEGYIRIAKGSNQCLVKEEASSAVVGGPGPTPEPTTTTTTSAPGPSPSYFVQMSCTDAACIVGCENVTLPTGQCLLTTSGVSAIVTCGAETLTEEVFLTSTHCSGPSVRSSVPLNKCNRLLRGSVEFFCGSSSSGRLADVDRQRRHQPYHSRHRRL
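Compounds were screened in titration against cruzain (1.5 nM) with 0.01% Triton X-100 to counter colloidal aggregation. Activity was the AMC fluorescence increase over 60 s after adding 2 uM Z-FR-AMC at pH 5.5.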
StopGo reporter: FMDV 2A StopGo reporter, luciferase signal; human cells with a luciferase reporter of 2A StopGo recoding; control for the full effect not named in the record; Potency, µM (top dose mostly 57.9 µM), inactives show at the highest dose signal change, negative = less light; 410,000 tested, 1.2% active; AID 1159524; active = well fitted falling curve with a large enough effect; inconclusive = small, poorly fitted or top-dose-only effect; inactive = no such curve, though single readings can be large or run the other way; tested in HEK293T cells; also: % is scaled to controls: 0 for no effect and ±100 for the full control effect; nearly all actives have a fitted effect of over 45% in size; luciferase light after 4 h
Lassa entry inh: Lassa virus entry inhibition | Lassa virus pseudotype entry inhibition, cell reporter; control for the full effect not named in the record | Potency, µM (titrated, usually from 37.9 µM), for inactives: at the top dose activity change, negative = inhibition, usual class: inhibitors | 300,000 tested, 1.2% active | AID 540256; active means well fitted inhibition curve with a large enough effect; inconclusive means small, poorly fitted or top-dose-only effect, or effect the other way; inactive means flat fitted curve, though single readings scatter; tested in HEK293 cells; also: % is scaled to controls: 0 for no effect and ±100 for the full control effect; nearly all actives have a fitted effect of over 50% in size; luciferase read-out
NS1 function inh: inhibitors of influenza NS1 protein function; S. cerevisiae slowed by influenza A NS1, growth recovery by OD600; Potency, µM (top dose mostly 46.1 µM), inactives show top-dose activity, positive = more growth; 270,000 tested, 0.4% active; active means well fitted rising curve with a large enough effect; inconclusive means small, poorly fitted or top-dose-only effect; inactive means no such curve, though single readings can be large or run the other way; also: nearly all actives have a fitted effect of over 50% in size
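S. cerevisiae expressing influenza A NS1, grown in glucose, washed, then diluted 1:100 into pH 6.0 -URA galactose medium with 23 nl compound. Growth recovery read as OD600; NS1-free strain serves as control.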
Cruzain noTriton: inhibitors of Trypanosoma cruzi cruzain without detergent. P25779. purified cruzain, Z-FR-AMC fluorescence, no detergent. Potency, µM, for inactives: max response, negative = inhibition, usual class: inhibitors. 200,000 tested, 2.3% active. AID 1476;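 also: plate controls were enzyme without inhibitor for no effect and buffer without enzyme for full effect; nearly all actives have a fitted effect of over 40% in size; top concentration of the series not given in the record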
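Purified cruzain at 1.5 nM, pre-incubated 15 min with compound at room temperature in 100 mM sodium acetate pH 5.5, 5 mM DTT, 0.00005% Triton X-100. Reaction started with 2 uM Z-FR-AMC; AMC fluorescence increase over 60 s gives rate.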
Marburg entry inh: Marburg virus entry inhibition. Potency, µM (titrated, usually from 37.8 µM), for inactives: at the top dose activity change, negative = inhibition, actives largely listed as inhibitors. 300,000 tested, 1.8% active. Marburg virus pseudotyped entry inhibition, cell reporter; control for the full effect not named in the record; about a third of the inactives were read at about 46 µM. AID 540276; active = well fitted inhibition curve with a large enough effect; inconclusive = small, poorly fitted or top-dose-only effect, or effect the other way; inactive = flat fitted curve, though single readings scatter; tested in HEK293 cells; about a fifth of its hits are not listed in these tables; also: % is scaled to controls: 0 for no effect and ±100 for the full control effect; luciferase read-out
SARS PLpro yeast: inhibitors of SARS-CoV papain-like protease in yeast; 330,000 tested, 0.19% active; S. cerevisiae expressing SARS-CoV PLpro, growth rescue; control for the full effect not named in the record; Potency, µM (doses to about 32.9 µM), without a hit: at the top dose activity, positive = growth rescue; active means well fitted rising curve with a large enough effect; inconclusive means small, poorly fitted or top-dose-only effect; inactive means no such curve, though single readings can be large or run the other way; also: 0% is about no effect; nearly all actives have a fitted effect of over 55% in size; growth read by luminescence after 48 h
RE007 growth inh: less growth of the S. pombe RE007 Vpr strain; Potency, µM (series often up to 92.2 µM), inactives show at the top dose activity change, negative = less growth; S. pombe RE007 Vpr strain, BacTiter-Glo ATP luminescence, 24 h; control for the full effect not named in the record; 360,000 tested, 0.21% active; AID 651644; active = well fitted falling curve with a large enough effect; inconclusive = small, poorly fitted or top-dose-only effect; inactive = no such curve, though single readings can be large or run the other way;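 also: % is scaled to controls: 0 for no effect and ±100 for the full control effect; nearly all actives have a fitted effect of over 50% in size; the assay follows cell death caused by Vpr and the record does not say whether a fall means rescue or toxicity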
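Fission yeast RE007 carrying one integrated HIV-1 vpr copy, seeded at OD 0.01 in PMG+AL medium with 23 nL pinned compound. Grown 24 h at 30 degrees; viability read by BacTiter-Glo luminescence after 5 min.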
The depositor's hits bear a star; u = inconclusive; x = no result given; [ ] = dose if it differs, or a comment. Unless noted, calls follow the shape of the dose curve; as a rule, active = well fitted curve in the direction sought with a large enough effect; inconclusive = small, poorly fitted or top-dose-only effect, or another doubt; inactive = no such curve, though single readings can be large; an effect the other way counts as inactive or inconclusive. Potency is read from the fitted curve at half-maximal effect.

SMILES	Cruzain inh Det	StopGo reporter	Lassa entry inh	NS1 function inh	Cruzain noTriton	Marburg entry inh	SARS PLpro yeast	RE007 growth inh
Cc1ccc(-c2n[nH]c3c2C(c2ccccc2Cl)N(c2ccc(C(=O)O)cc2)C3=O)cc1 (stereo not drawn)	u	u	-28%[46.1 µM]	x	10%	-22%[46.1 µM]	x	x
COc1cc(NC(=O)C2=COCCO2)c(OC)cc1Cl	x	6%	8%[46.1 µM]	x	x	26%	-1%	-5%
C=CCn1c(SCc2csc(C)n2)nc2sc3c(c2c1=O)CCCCC3	-6.6%	-29%	u	-14%	13%	-20%	-12%	-11%
CC(=O)Nc1ccc(NC(=O)c2ccccc2N(C)S(C)(=O)=O)cc1	-6.8%	-14%	6%	1%	12%	5%	3%	-3%
COc1ccc(NC(=O)c2ccc(OC(F)F)cc2)cc1Cl	-5.4%	3%	u	-22%	-7%	-28%	-21%	-12%
FC(F)(F)c1nnc2c(Sc3ccccc3)nc3ccccc3n12	3.0%	31%[activator]	-1%	3%	-2%	-5%	0%	-12%
CC(=O)OCCNc1cc(SCc2ccco2)c2nonc2c1[N+](=O)[O-]	-28%	32µM*	0%	-7%	u	u	5%	x
COc1ccccc1CCNC(=O)C(=O)NCC1OCCN1S(=O)(=O)c1ccc(F)cc1 (stereo not drawn)	x	-5%	x	-2%	x	x	-1%	-2%
CSC(=S)N/N=C(\C)c1ccc(Br)cc1	x	-2%	-24%	-1%	x	-1%[46.1 µM]	-5%	-3%
CN(C(=O)CC(NC(=O)c1ccccc1)(c1ccccc1)c1ccccc1)c1ccccc1	3.6%	u	u	u	-7%	u	-3%	-1%

Brought forward from above: 3 entries; new compounds follow.
SMILES	Cruzain inh Det	StopGo reporter	Lassa entry inh	NS1 function inh	Cruzain noTriton	Marburg entry inh	SARS PLpro yeast	RE007 growth inh
COc1ccccc1CCNC(=O)C(=O)NCC1OCCN1S(=O)(=O)c1ccc(F)cc1 (stereo not drawn)	x	-5%	x	-2%	x	x	-1%	-2%
CSC(=S)N/N=C(\C)c1ccc(Br)cc1	x	-2%	-24%	-1%	x	-1%[46.1 µM]	-5%	-3%
CN(C(=O)CC(NC(=O)c1ccccc1)(c1ccccc1)c1ccccc1)c1ccccc1	3.6%	u	u	u	-7%	u	-3%	-1%
O=C(c1ccccc1)N(CCN1CCOCC1)C1(C(=O)Nc2ccccc2)CCCCC1	1.2%	21%	17%	-12%	1%	-1%	1%	17%
O=C(NCc1ccccc1)c1cccc(NC(=O)c2ccco2)c1	2.0%	13%	u	-17%	-1%	u	-8%	1%
Cc1nc(-c2ccccc2OC(F)(F)F)[nH]c(=O)c1Cl	x	-1%	18%	0%	x	-1%	0%	-1%
Cc1nn(C)c(C(=O)N2CCc3ccccc32)c1Cl	0.4%	-14%	7%	-7%	0%	-3%	2%	-6%
CC(C)NC(=O)C(=O)NCCN1CCN(S(=O)(=O)c2ccc(Cl)cc2)CC1	3.0%	x	-22%	-8%	-2%	27%	-4%	1%
CC(C(=O)N(C)c1ccccc1)N1CCN(C(=O)c2ccccc2)CC1 (stereo not drawn)	x	5%	8%	1%	x	-16%	2%	u
Cc1cccc(CN2CCCC(C(=O)c3cccc(OC(C)C)c3)C2)n1 (stereo not drawn)	x	-17%	x	5%	x	x	1%	-4%
CCOC(=O)c1ccc(-c2ccc(/C=C(\C#N)c3nc4ccc(C)cc4[nH]3)o2)cc1	-2.3%	-19%	u	x	-2%	x	x	x
Cc1cccc(C)c1-n1c(C)cc(/C=C2\NC(=O)NC2=O)c1C	-13%	-22%	u	1%	-13%	u	-7%	4%
COc1ccccc1Oc1c(C)oc2c(CN3CCOCC3)c(O)ccc2c1=O	x	-7%	25%	1%	x	2%[46.1 µM]	9%	-20%

Full records, looked up by structure:
CC(=O)OCCNc1cc(SCc2ccco2)c2nonc2c1[N+](=O)[O-] reads Cruzain inh Det: -28%; StopGo reporter: 32µM*; Lassa entry inh: 0%; NS1 function inh: -7%; Cruzain noTriton: u; Marburg entry inh: u; SARS PLpro yeast: 5%; RE007 growth inh: x
CN(C(=O)CC(NC(=O)c1ccccc1)(c1ccccc1)c1ccccc1)c1ccccc1 reads Cruzain inh Det: 3.6%; StopGo reporter: u; Lassa entry inh: u; NS1 function inh: u; Cruzain noTriton: -7%; Marburg entry inh: u; SARS PLpro yeast: -3%; RE007 growth inh: -1%
CC(C(=O)N(C)c1ccccc1)N1CCN(C(=O)c2ccccc2)CC1 (stereo not drawn) reads Cruzain inh Det: x; StopGo reporter: 5%; Lassa entry inh: 8%; NS1 function inh: 1%; Cruzain noTriton: x; Marburg entry inh: -16%; SARS PLpro yeast: 2%; RE007 growth inh: u

(next part)
SMILES	Cruzain inh Det	StopGo reporter	Lassa entry inh	NS1 function inh	Cruzain noTriton	Marburg entry inh	SARS PLpro yeast	RE007 growth inh
CCOC(=O)c1sc(NC(=O)c2ccc(S(=O)(=O)N(C)C)cc2)cc1C	-7.2%	u	-20%	-1%	-14%	-36%	7%	-8%[3.69 µM]
COCC(=O)N/N=C/c1ccc(Sc2nc3ccccc3s2)o1	-5.7%	-9%	10%	-2%	11%	51%	2%	3%
Cc1ccc(-n2c(SCc3ccccc3F)nc3[nH]ncc3c2=O)cc1Cl	-6.6%	0%	u	x	u	x	x	x
CCCc1cc(=O)oc2cc(OCC(=O)N3CCc4ccccc43)ccc12	0.0%	-21%	4%	10%	-29%	2%	1%	-11%
COC(=O)c1cc(Br)c(=O)n(Cc2ccncc2)c1	-1.0%	0%	2%	2%	-1%	u	9%	1%
O=C1OC(c2ccc(F)cc2)=C/C1=C\c1ccc(O)cc1	x	35%[activator]	x	7%	x	x	-1%	-15%
Cc1cc(C(=O)N/N=C/c2ccc(O)c([N+](=O)[O-])c2)n[nH]1	-8.1%	-7%	x	1%	6%	x	-12%	-11%
COc1ccc(C2N(C(=O)c3ccccc3)CCN2C(=O)c2ccc(C)cc2)cc1 (stereo not drawn)	-0.2%	x	u	1%	1%	-6%	-5%	1%
COCCN(Cc1ccco1)C(=O)c1cc2c(=O)[nH]c3ccc(C)cc3c2s1	-2.2%	-8%	x	x	-4%	u	x	x
Nc1ccc(-c2ccc(N)c(C(=O)O)c2)cc1C(=O)O	x	-8%	x	-1%	x	x	0%	-1%
Cc1ccc(C(C)C)c(OCC(=O)N2CCN(Cc3nc4cc([N+](=O)[O-])ccc4n3C)CC2)c1	-11%	16%	-4%	-44%	u	-10%	-63%	7%
CCC(=O)n1nc(-c2ccccc2)nc1NCc1ccccc1	3.2%	14%	u	-31%	2%	u	-12%	6%
CCOCC(=O)Nc1cc(C(=O)Nc2cccc(C)c2C)ccc1Cl	3.6%	x	13%	28%	-6%	4%	-6%	-6%
COc1ccc(C(CCN2CCCCC2)c2c(O)cc(OC)cc2OC)cc1 (stereo not drawn)	x	-23%	x	0%	x	x	1%	-9%
COc1ccc(Nc2nnc(-n3nc(C)cc3C)c3ccccc23)cc1	0.0%	-14%	2%[46.1 µM]	x	-9%	-14%[46.1 µM]	x	x
COc1ccc(C(=O)NC(C)c2ccc(-n3ccnc3)cc2)cc1[N+](=O)[O-] (stereo not drawn)	x	-13%	-30%	7%	x	4%[46.1 µM]	4%	-18%
Cc1c(NC(=O)C(C)Sc2ccccc2)c(=O)n(-c2ccccc2)n1C (stereo not drawn)	3.2%	-8%	2%	0%	6%	1%	-7%	6%
COc1ccc(CN2CCS(=O)(=O)CC2)cc1OC	x	-5%	x	9%	x	x	0%	19%
CCC(=O)N1CCc2cc(CNC(=O)Nc3ccc(OC)cc3OC)ccc21	-0.4%	16%	21%[46.1 µM]	x	-5%	x	x	x
O=C(NCc1ccco1)c1ccccc1-c1ccc(C(F)(F)F)cc1	-2.9%	-17%	-1%	-10%	-7%	u	10%	-18%
O=C(NCCCO)C(=O)NCCc1ccc(Cl)cc1	-0.7%	4%	u	24%	3%	-1%	-2%	20%
Cc1cccc(C)c1OCC(=O)Nc1ccc(N2CCOCC2)cc1	x	9%	x	-6%	x	x	-1%	-9%
O=C(CNC(=O)c1ccc([N+](=O)[O-])cc1)N/N=C/c1c[nH]c2ccccc12	x	-18%	0%	0%	x	0%	1%	-7%
CCN(CC)S(=O)(=O)c1cccc(C(=O)Nc2cc(C)nn2-c2ccccc2)c1	-2.4%	-24%	2%	-13%	-7%	2%	12%	-3%
CN1CCN(C(=O)Cn2c(C(F)(F)F)nc3ccccc32)CC1	4.4%	-11%	u	2%	-9%	27%	0%	-3%
Cc1ccc(NC(=O)C(C)N2C(=O)C3CC=C(Cl)CC3C2=O)cc1 (stereo not drawn)	-1.4%	-19%	-10%	4%	3%	0%[46.1 µM]	5%	-2%
O=C(O)C1CC=CCC1C(=O)Nc1ccc(Oc2ccc(Cl)cc2)cc1 (stereo not drawn)	-3.9%	-11%	5%	28%	-23%	u	19%	x
Cc1ccc(C(=O)C(C)OC(=O)CCS(=O)(=O)c2ccc(C)cc2)cc1 (stereo not drawn)	x	-13%	-1%	x	x	-2%	-4%	6%
Cc1nc2ccccc2cc1C(=O)N/N=C/c1ccc([N+](=O)[O-])cc1	-8.7%	-5%	10%	-19%	-2%	u	3%	-2%
CCOc1ccccc1-c1ccc(C(=O)NCc2ccccc2)o1	10%	29%	7.3µM*	-19%	4%	7%	-25%	-7%
CCN(C(=O)Cn1cc(C(=O)c2ccc(F)cc2)c(=O)c2ccc(C)nc21)c1cccc(C)c1	-8.1%	-16%	-6%[46.1 µM]	x	10%	x	x	x
COC(=O)c1nnn(-c2ccccc2)c1N	2.6%	-2%	15%	-6%	-2%	u	0%	10%
O=C(Nc1ccccc1)N1C2CCC1CC(O)(c1cccnc1)C2 (stereo not drawn)	4.6%	0%	9%	u	7%	14%	-1%	-14%
Cc1ccc2[nH]c(=O)c(C3=NN(C(=O)CCC(=O)O)C(c4cccs4)C3)c(-c3ccccc3)c2c1 (stereo not drawn)	-5.0%	-6%	0%	17%	33%	u	8%	5%
CCCCNC(=O)c1cc2c(C)cc(C)cc2[nH]1	x	9%	u	-10%	x	-26%[46.1 µM]	-3%	0%

Screening results (PubChem BioAssay)
